High-throughput results as filed in PubChem BioAssay.
Mtb MenB inh: inhibitors of Mycobacterium tuberculosis MenB enzyme. P9WNP5. MenB enzyme assay, absorbance read-out; some hits fall short of the stated cut. inhibition, %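 (about 12 µg/mL by stock and volumes)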. 100,000 compounds, 0.43% hits. AID 540299;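 active = mean of two replicates above 30%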;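 note: 0% = no compound and 100% = wells with inactive enzyme; the first replicate is given; strong numbers were not always called active; inactives centre near -10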
Target sequence (P9WNP5 whole entry, looked up): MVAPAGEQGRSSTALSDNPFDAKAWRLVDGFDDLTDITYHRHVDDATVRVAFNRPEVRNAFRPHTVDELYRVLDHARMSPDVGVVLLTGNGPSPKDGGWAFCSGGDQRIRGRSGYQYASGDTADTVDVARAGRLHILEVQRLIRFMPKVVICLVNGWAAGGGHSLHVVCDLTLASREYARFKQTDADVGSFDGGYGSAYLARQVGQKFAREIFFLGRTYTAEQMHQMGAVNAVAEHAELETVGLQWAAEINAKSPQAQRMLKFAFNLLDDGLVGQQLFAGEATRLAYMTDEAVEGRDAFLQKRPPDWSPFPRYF
Polio RdRp inh: poliovirus RNA polymerase inhibition; AID 588519; % elongation, % (compound at 16.7 µg/mL); 150,000 compounds, 0.66% hits; poliovirus polymerase elongation, fluorescence polarization; hits give low values; P03300; in the data active = % elongation below about 90%; note: some results filed as inactive read as strong as hits
Target sequence (P03300 1749-2209 limits assumed): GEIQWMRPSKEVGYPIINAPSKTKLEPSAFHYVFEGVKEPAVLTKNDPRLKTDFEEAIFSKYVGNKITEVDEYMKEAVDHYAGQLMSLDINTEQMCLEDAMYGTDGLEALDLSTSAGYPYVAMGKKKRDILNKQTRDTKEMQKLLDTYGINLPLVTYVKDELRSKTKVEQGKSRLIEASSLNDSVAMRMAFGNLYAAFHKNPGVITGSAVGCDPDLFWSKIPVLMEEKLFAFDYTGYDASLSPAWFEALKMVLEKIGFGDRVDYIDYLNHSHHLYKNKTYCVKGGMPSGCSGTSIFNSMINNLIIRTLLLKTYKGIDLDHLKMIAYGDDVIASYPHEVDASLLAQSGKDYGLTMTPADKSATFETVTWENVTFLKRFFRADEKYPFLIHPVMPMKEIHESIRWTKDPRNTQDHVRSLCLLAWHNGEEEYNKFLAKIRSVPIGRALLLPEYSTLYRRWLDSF
MbtI inh: blocks the Mycobacterium tuberculosis siderophore enzyme MbtI | P9WFX0 | purified MbtI enzyme, fluorescence intensity read-out | inhibition, %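 (about 17 µg/mL by stock and volumes)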 | 100,000 compounds, 0.89% hits;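 active = above 50% in both replicates, above 80% if mildly self-fluorescent; inactive = the rest, strongly fluorescent compounds included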;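 note: 0% = mean of negative and 100% = mean of positive controls; one replicate is shown; some compounds called inactive have numbers as strong as hits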
Polio RdRp inh intensity: further read-out of Polio RdRp inh, marked with its call; % elongation; measured here: total intensity read-out; formula for this scale not given here;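 total fluorescence in place of polarization; lower means less elongation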
Numbers without * were called inactive; x = not tested or not shown; & = joins results of further samples.

SMILES	Mtb MenB inh	Polio RdRp inh	Polio RdRp inh intensity	MbtI inh
CCOC(=O)c1sc2nc(C)nc(NC3CC3)c2c1C	-44	103	104	-14
N#C/C(=C\Nc1ccc(C(=O)O)cc1)c1nc2ccccc2[nH]1	-77	99	107	-31
Cc1nc(SCC(N)=O)c2c3c(sc2n1)CCCC3	-15	101	99	-1
C=CCN(CC=C)C(=O)CCN1C(=O)c2ccccc2C1=O	13	101	102	-13
c1ccc(-c2nnc3sc(-c4ccc5c(c4)OCO5)nn23)cc1	-29	100	101	77
O=C(Nc1cccc2nsnc12)c1ccc(Cl)cc1	-22	103	104	5
O=C(c1ccccc1)c1ccccc1OCc1nc2ccccc2s1	-35	102	98	x
O=C(c1ccccc1)N1CCN(S(=O)(=O)N2CCOCC2)CC1	15	103	102	-1
Cc1cccc(C)c1NC(=O)CCCSc1nnc(N)s1	-98	108	107	-4
CC1Nc2ccc(C(=O)N3CCC4(CC3)OCCO4)cc2NC1=O (stereo not drawn)	-6	103	104	116
O=C(NC(=S)NCc1ccco1)c1ccccc1	-11	102	106	x
COc1ccc(C2=NN(S(C)(=O)=O)C(c3ccccc3OC)C2)cc1 (stereo not drawn)	2	115	163	-4
O=C(O)C1N(Cc2ccccc2)CCCN1Cc1ccccc1	-36	103	101	-12
CCOC(=O)c1cnc2ccccc2c1NCCO	-3	105	111	x
O=C(c1ccc(N2CCCS2(=O)=O)cc1)N1CCN(Cc2ccc3c(c2)OCO3)CC1	-18	103	102	-11
Cc1cc(C)c2c(-n3cccc3)c(C(=O)OC3CC(C)OC3=O)sc2n1 (stereo not drawn)	-25	104	100	-2
COc1cc(/C=C/C(=O)C2=C(O)c3ccccc3C2=O)ccc1O	-36	104	105	6
CC(C)NC(=O)c1cc2ccccc2oc1=O	-25	103	99	76
O=C(O)c1ccc2nc(-c3ccccn3)c(-c3ccccn3)nc2c1	-29	103	101	14
Cc1ccc(C(CNC(=O)c2ccccc2)N2CCN(C)CC2)cc1 (stereo not drawn)	-19	106	105	-5
COc1ccc2c(c1)C1=NN(C(C)=O)C(c3ccc(N(C)C)cc3)C1CC2 (stereo not drawn)	-5	100	99	3
OCN1C2=NCN(Cc3ccc(Cl)cc3)CN2c2ccccc21	12	x	x	-1
CC(OC(=O)c1ccc(C#N)cc1)C(=O)Nc1cccc(C(F)(F)F)c1 (stereo not drawn)	x	101	100	-20
CCn1c(C(=O)O)c(CNCc2ccccc2)c2ccc(OC)cc21	-6	102	106	-18
O=C(Nc1ncn[nH]1)c1cccnc1	-14	107	109	-7
Cc1ccc(C(=O)CN(Cc2ccccc2)c2ccccc2)cc1	-4	105	108	-8
C=C1C(=O)OC2CC1C(OC(C)=O)C/C(C)=C/CC/C(C)=C/CC[C@]2(C)O (stereo partly drawn)	-4	99	100	x
Cc1nn(CC(=O)Oc2ccc(Cl)cc2)c(C)c1Cl	-16	100	102	6
CC(C)C(C1=C(O)CC(C)(C)CC1=O)C1C(=O)CC(C)(C)CC1=O (stereo not drawn)	-94	101	98	x
CCOC(=O)c1ccc(NC(=O)CSC(=S)N2CCOCC2)cc1	-26	95	92	8
N=Cc1c(O)n(-c2ccccc2)c2ccccc12	2	95	104	8
CCCc1cc(=O)oc2cc(OCn3nnc4ccccc4c3=O)ccc12	-7	102	108	13
CN(C)c1ccc(CNC(=O)c2nccn2Cc2ccc(Cl)cc2)cc1	-19	99	102	-16
O=C(NC1CCCC1)C(c1ccccc1)N(C(=O)c1ccco1)C1CCCC1 (stereo not drawn)	-66	103	101	-4
NC(=O)N/C(CSCc1c(F)cccc1Cl)=N/O	-10	102	99	2
O=C(/C=C/c1ccc2ccccc2n1)OCC(=O)c1ccc2c(c1)OCO2	3	115	214	12
NC(=O)c1cc(Cl)c(Cl)cc1C(N)=O	-9	105	108	-19
COC(=O)CNC(=O)c1cccc(S(=O)(=O)NCc2ccccc2)c1	-18	104	105	-16
COc1ccc(CN2C(=O)c3ccccc3C2=O)cc1	-15	102	101	1
O=C1CCN(C(=O)c2ccc(C(=O)c3ccccc3)cc2)CC1	-7	105	100	0
COc1ccccc1C1/C(=C(\O)c2cc(C)ccc2C)C(=O)C(=O)N1CCCN(C)C (stereo not drawn)	10	101	104	-15
Cc1c(C)n(Cc2ccccc2)c2ncnc(N)c12	-21	107	107	9
O=C(C1=COCCO1)N1CCN(S(=O)(=O)c2cccc(Cl)c2Cl)CC1	-4	95	95	-1
CN(C)c1ccc(C(=O)OCc2ccccc2)cc1	-6	98	103	-15
O=C(CN1CCN(C(=O)CN2C(=O)C3CC=CCC3C2=O)CC1)Nc1ccc(Cl)c(C(F)(F)F)c1 (stereo not drawn)	-32	99	87	9
Cc1ccc(NC(=O)N/C(=N/O)c2ccc(NC(=O)C3CC3)cc2)cc1Cl	20	99	101	8
Cc1cccc(C)c1NC(=O)N(Cc1ccccc1)C(=O)CC#N	15	105	105	-1
O=C(NCCCN1CCOCC1)c1nc(-c2ccc(F)cc2)no1	-38	103	103	-15
COC(=O)CCSC1CC(=O)N(c2ccccc2)C1=O (stereo not drawn)	-19	99	101	-11
O=C1CC(C(=O)NCc2ccccc2)N=C(N2CCCCC2)N1 (stereo not drawn)	-22	103	103	-9

(further entries)
SMILES	Mtb MenB inh	Polio RdRp inh	Polio RdRp inh intensity	MbtI inh
Cc1ccc(N2C(=O)CC2(C(=O)NC2CCCCC2)c2cccs2)cc1 (stereo not drawn)	1	102	97	16
Cc1cc(O)ccc1Cl	-4	96	101	-68
Cc1[nH]c(=O)n(CN2CCN(c3ncc(C(F)(F)F)cc3Cl)CC2)c1C	-35	105	102	-6
CCc1ccc2nc(N(CCN(C)C)C(=O)c3cccs3)sc2c1	-6	100	101	17
CCn1c(CN2C(=O)c3ccccc3C2=O)nc2cc(S(=O)(=O)N(C)C)ccc21	-32	105	104	-2
CC(=O)O[C@@H]1O[C@@H]2CO[C@@H](c3ccccc3)O[C@H]2[C@H](OC(C)=O)[C@H]1OC(C)=O	-6	110	109	-7
Cc1nc(SCCC(=O)O)c2ccccc2n1	1	100	101	-3
O=C(/C=C\c1ccc(-c2ccc(F)cc2)o1)Nc1ccc(N2CCOCC2)cc1	x	101	107	-10
COC(=O)Cn1cnc2c(nnn2Cc2ccccc2F)c1=O	16	100	94	7
CCc1ccc(S(=O)(=O)NCC(=O)O)cc1	15	101	102	10

Four compounds from above with just Polio RdRp inh and Mtb MenB inh.
Molecule,Polio RdRp inh,Mtb MenB inh
Cc1cc(O)ccc1Cl,96,-4
Cc1[nH]c(=O)n(CN2CCN(c3ncc(C(F)(F)F)cc3Cl)CC2)c1C,105,-35
CCc1ccc2nc(N(CCN(C)C)C(=O)c3cccs3)sc2c1,100,-6
CCn1c(CN2C(=O)c3ccccc3C2=O)nc2cc(S(=O)(=O)N(C)C)ccc21,105,-32

(next part)
SMILES	Mtb MenB inh	Polio RdRp inh	Polio RdRp inh intensity	MbtI inh
Cc1nc2ccccn2c1C(=O)N/N=C/c1ccccc1	-9	102	104	4
O=C(O)COCC(=O)Nc1ccc2c(c1)oc1ccccc12	-7	106	105	25
CC(=O)Nc1ccc(Nc2cc(C)c3ccccc3n2)cc1	-11	99	97	x
COC(=O)c1ccc(C(=O)NC(=S)Nc2nc3c(s2)CCCC3)cc1	-18	102	96	9
CCN(Cc1nc(-c2ccc(C)cc2)no1)C(=O)Nc1ccccc1OC	-5	102	103	-10
Cc1ccc(N2C(=O)NC(=O)/C(=C/c3ccc(Br)o3)C2=O)cc1Cl	-54	117	131	35
Cc1cc2nc3c(=O)n(C4CCCCC4)c(=O)[nH]c3nc2cc1N=CN(C)C	-7	93	183	13
N#C/C(=C\c1cn(CC(=O)NCC2CCCO2)c2ccccc12)C(=O)NCC1CCCO1 (stereo not drawn)	-127	105	99	-15
O=C(CCC(=O)c1ccccc1)NCc1ccccc1	-20	102	91	3
C(#Cc1ccccc1)CNCc1ccc2c(c1)OCO2	-4	101	103	-7

2 entries drawn at random from those above, as already listed:
SMILES	Mtb MenB inh	Polio RdRp inh	Polio RdRp inh intensity	MbtI inh
CCCc1cc(=O)oc2cc(OCn3nnc4ccccc4c3=O)ccc12	-7	102	108	13
Cc1cccc(C)c1NC(=O)N(Cc1ccccc1)C(=O)CC#N	15	105	105	-1

(further entries)
SMILES	Mtb MenB inh	Polio RdRp inh	Polio RdRp inh intensity	MbtI inh
CCCCNS(=O)(=O)c1c(C)c(C)cc(C)c1C	-27	100	102	-8
O=C(OCC(=O)c1ccc(S(=O)(=O)N2CCCC2)cc1)C1=COCCO1	-13	x	x	-1
COC(=O)C1=C(N)OC(CC#N)=C(C(=O)OC)C1c1ccc(OC)c(OC)c1 (stereo not drawn)	-77	104	104	x
Cc1cc(C)cc(NC(=O)N2CCN(C/C=C/c3ccccc3)CC2)c1	-21	102	105	-25
CCOc1ccc2nc(SCC(=O)NC(=O)CN3CCCC3=O)sc2c1	8	100	101	5
N#Cc1c(-c2ccccc2)cc(-c2ccco2)c(C#N)c1N	-122	115	140	89
O=C(OCc1ccc2c(c1)OCO2)c1ccc(S(=O)(=O)N2CCCC2)cc1	-21	101	103	-17
CNC(=S)NCCN1C(=O)S/C(=C\c2cccnc2)C1=O	-24	105	105	2
C/C(=N/OC(=O)c1ccccc1)C(=O)c1cccs1	-25	100	102	-12
CCN(CC)S(=O)(=O)c1ccc(C(=O)N2CCN(c3ccccc3)CC2)cc1	-22	103	106	8
CCn1c(SCC(N)=O)nnc1-c1ccoc1C	-2	104	107	-12
CCN(CC)C(=O)CSc1nnc2nnc3ccccc3n12	-6	99	103	-1
CC1(C)Cc2ccccc2-c2nnc(SCC(=O)N3CCCCC3)n21	-26	102	100	-15
CCOC(=O)N1CCC(N2Cc3cccc(C(=O)Nc4ccc(S(=O)(=O)N(CC)CC)cc4)c3C2=O)CC1	-20	104	99	-8
O=C1c2ccccc2C(=O)N1CCn1c(=O)oc2ccccc21	9	106	100	1
O=C(NC1CCCC1)c1cc2c(Cl)ccc3c2n1CCO3	-5	106	104	-51
CC1CCCCC1NS(=O)(=O)c1ccc(S(=O)(=O)N2CCN(c3ncccn3)CC2)cc1 (stereo not drawn)	2	102	104	13
Cc1ccc(CNc2nc3c(S(=O)(=O)c4cc(C)ccc4C)nnn3c3ccccc23)cc1	-2	103	104	-4
Cc1c(Cl)cccc1NC(=O)c1cccs1	-16	100	104	x
CC1CCc2c(sc3nnn(CC(=O)c4cccs4)c(=O)c23)C1 (stereo not drawn)	-25	101	101	5

Compound profiles, as listed above. Screens in order: Mtb MenB inh	Polio RdRp inh	Polio RdRp inh intensity	MbtI inh
Record of `CC1CCCCC1NS(=O)(=O)c1ccc(S(=O)(=O)N2CCN(c3ncccn3)CC2)cc1` (stereo not drawn) → 2	102	104	13
Record of `CCn1c(SCC(N)=O)nnc1-c1ccoc1C` → -2	104	107	-12
Record of `O=C(NC1CCCC1)c1cc2c(Cl)ccc3c2n1CCO3` → -5	106	104	-51
Record of `Cc1c(Cl)cccc1NC(=O)c1cccs1` → -16	100	104	x
Record of `CCOC(=O)N1CCC(N2Cc3cccc(C(=O)Nc4ccc(S(=O)(=O)N(CC)CC)cc4)c3C2=O)CC1` → -20	104	99	-8

Following part
SMILES	Mtb MenB inh	Polio RdRp inh	Polio RdRp inh intensity	MbtI inh
CC1(C)OC(CN)C(CN)O1 (stereo not drawn)	-28	100	104	-5
COc1cc([C@@H]2c3cc4c(cc3[C@@H](OC3OC5COC(C)OC5C(O)C3O)[C@H]3COC(=O)[C@H]23)OCO4)cc(OC)c1O (stereo partly drawn)	5	100&99	104&103	-8
Cc1ccc(CSc2nnc(NC(=O)C3=NNC(=O)CC3)s2)cc1	16	101	100	-6
O=C(O)/C=C\C(=O)Nc1cccc(C(F)(F)F)c1	x	100	108	-3
Cc1ccc(NCC(O)c2ccc(Cl)cc2)cc1 (stereo not drawn)	x	102	102	-11
O=C(CSc1nc(-c2ccccc2)cs1)NCCCN1CCCC1=O	-11	102	107	-14
COc1ccc(-c2nn(CCC(=O)O)cc2C=C2C(=O)NC(=S)NC2=O)cc1OC	-10	103	104	23
Cc1ccc(NC(=O)C2CCCN(S(=O)(=O)c3ccc4nc(-c5ccccc5)[nH]c4c3)C2)cc1 (stereo not drawn)	-21	101	103	30
O=C(CSc1nnc(Cc2ccccc2)o1)NCCc1ccccc1	-13	100	102	-18
CSc1nc(C)c(C(=O)CNc2ccccc2)cc1C#N	-13	104	110	1
Cc1cc(C)nc(N2CCNCC2)n1	12	102	104	58
CC(=O)Oc1ccc2c(c1)CCC1C2CC[C@]2(C)C(=O)CCC12 (stereo partly drawn)	1	103	99	-8
OC1(c2ccco2)CSC(=Nc2cccnc2)N1C1CC1 (stereo not drawn)	-33	99	87	1
CC(C)(C)SCC(=O)O	7	84*	89*	-7
Cc1cc(C2C(C#N)=C(N)N(c3ccccc3Cl)C3=C2C(=O)CC(c2ccccc2)C3)c(C)s1 (stereo not drawn)	-23	104	107	2
O=C(CN1CCCCCC1=O)NCCOc1ccccc1F	0	104	107	-4
COc1ccc(C(=O)N=c2sc3ccccc3n2C)cc1	-3	106	112	70
O=C(CCc1ccccc1)NCc1ccco1	17	100	101	-7
Cc1cc(C(=O)OCc2nc3ccccc3s2)c(C)o1	-3	120	142	5
O=C(N1CCOCC1)N1CCN(c2ccccc2)CC1	36*	99	101	2
Clc1ccc(-c2csc(Nc3ncccn3)n2)c(Cl)c1	4	102	106	x
Cc1c(S(=O)(=O)c2ccc(Cl)cc2)csc1C(=O)Nc1ccc(F)cc1F	-28	103	108	-10
COc1ccccc1NC(=O)Cn1cnc2sc(C(=O)OC(C)C)c(C)c2c1=O	-5	107	109	x
O=c1c2ccccc2nnn1CSC(=S)N1CCCC1	-31	107	106	36
